Compound activity as filed in PubChem.
GALR2 ag: agonists of human galanin receptor 2 (GALR2); GALR2-expressing cells, agonist activation read-out; activation, %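 (tested at 5 µM)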; hit rate 0.48% among 140,000; AID 803;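 active means above mean plus 3 SD of all compounds, about 5% in these data, not always enough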;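 further: 0% = vehicle buffer wells and 100% = reference agonist at full effect; tested in CHO reporter cells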
Target sequence (O43603 whole entry, looked up): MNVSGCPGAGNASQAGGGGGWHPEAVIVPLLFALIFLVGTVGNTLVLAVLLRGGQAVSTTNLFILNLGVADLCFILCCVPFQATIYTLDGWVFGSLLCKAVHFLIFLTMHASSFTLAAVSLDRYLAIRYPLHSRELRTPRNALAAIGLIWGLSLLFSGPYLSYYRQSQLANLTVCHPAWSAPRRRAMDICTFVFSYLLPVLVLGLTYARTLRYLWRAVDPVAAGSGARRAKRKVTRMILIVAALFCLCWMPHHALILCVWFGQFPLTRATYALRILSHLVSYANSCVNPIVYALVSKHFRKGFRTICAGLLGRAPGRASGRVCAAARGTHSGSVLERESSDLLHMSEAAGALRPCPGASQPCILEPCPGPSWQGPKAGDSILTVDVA
PKD1 kinase inh: PKD1 (human) kinase inhibition | Q15139 | PKD1 kinase fluorescence polarization assay | inhibition, %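 (about 10 µM by stock and volumes)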 | hit rate 0.056% among 200,000 | AID 797;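 active means inhibition of 50% or more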;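 further: controls were vehicle for no effect and a reference inhibitor for full effect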
INS promoter inh: TRM-6 insulin promoter activity inhibition; TRM-6 cells (human fetal islet line), insulin promoter-eGFP reporter, imaging; reporter expression induced with tamoxifen; inhibition, % at 2 µM; hit rate 0.9% among 130,000; AID 1273;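 active means inhibition above the mean plus 3 SD, with well images judged a real hit on visual review, cut at about 60% in these data, passing the limit was not always enough; inconclusive means inhibition over the cutoff but images rejected on review; inactive means inhibition not above the cutoff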
HSV augment: HSV replication enhancement. HSV replication augmentation in cells, fold increase. maximum fold increase. hit rate 0.005% among 220,000. AID 1956;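 active means peak rise of 1.5-fold or more in the series; inconclusive means self-fluorescent or not available for retest; tested in PC3 cells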;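 further: first round at 10 µM; read as green reporter fluorescence; hits show the peak of a series up to 25 µM; 1 = signal of infected wells without compound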
RGS16-Gao: RGS16-Galphao interaction regulator (human); bead-based flow cytometry RGS16-Galphao binding, fluorescence; actives lie on both sides; binding response (% of control), % at 10 µM; hit rate 0.38% among 220,000;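 active means below 25% or above 175%, edge rows of some plates excepted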;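 further: Galphao activated by GDP with aluminum fluoride before binding; 100% = wells without compound and 0% = beads without RGS; some results beyond the cut were filed as inactive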
Target sequence (O15492 whole entry, looked up): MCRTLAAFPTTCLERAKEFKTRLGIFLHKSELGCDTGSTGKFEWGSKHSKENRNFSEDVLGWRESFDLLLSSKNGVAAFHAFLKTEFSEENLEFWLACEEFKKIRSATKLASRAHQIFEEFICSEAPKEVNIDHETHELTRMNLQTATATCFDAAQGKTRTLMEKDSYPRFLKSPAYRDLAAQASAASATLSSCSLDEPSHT
Target sequence (P09471 whole entry, looked up): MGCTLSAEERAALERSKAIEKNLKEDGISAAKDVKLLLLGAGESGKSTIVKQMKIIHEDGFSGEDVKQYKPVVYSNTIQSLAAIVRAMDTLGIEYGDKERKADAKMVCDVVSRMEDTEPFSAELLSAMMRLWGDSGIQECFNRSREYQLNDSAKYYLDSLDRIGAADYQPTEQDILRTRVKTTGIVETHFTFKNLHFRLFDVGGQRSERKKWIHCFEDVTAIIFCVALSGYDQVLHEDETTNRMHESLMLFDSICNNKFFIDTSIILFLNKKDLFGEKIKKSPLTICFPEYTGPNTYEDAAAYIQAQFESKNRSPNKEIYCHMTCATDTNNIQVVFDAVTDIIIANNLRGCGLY
INS promoter inh cell count: also measured in INS promoter inh; calls as there; normalized cell count, %; measured here: cell count, toxicity; reference of the scale not given here;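 cells exposed to compound for 48 h; stained nuclei by imaging scaled within each plate; lower means fewer cells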
HSV augment primary fold: further read-out of HSV augment, marked with its call; fold increase; compound at 10 µM; measured here: primary screen fold increase 10 uM; tested in PC3 cells;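 GFP signal in the first replicate; 1 = infected wells without compound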
* hit, by the source's call; i = inactive; ? = inconclusive; . = not tested or not shown.

#	canonical_smiles	GALR2 ag	PKD1 kinase inh	INS promoter inh	INS promoter inh cell count
1	CC1(C)CC(=O)c2cc(C(=O)NCc3ccco3)c(=O)n(-c3ccc(Cl)cc3)c2C1	1.0	-10	-11	91
2	CC(C)Cn1c(-c2cccs2)nc2ccccc21	-1.8	-6	38	145
3	O=C(CBr)N1CCc2ccccc2C(c2ccccc2)C1 (configuration not stated)	.	.	.	.
4	CCOC(=O)Cn1c(=O)c2c(nc(Br)n2Cc2ccccc2)n(C)c1=O	-0.8	-8	.	.
5	COc1ccc2cc3cc(C(=O)NCCCN4CCc5ccccc5C4)sc3nc2c1	-0.1	1	12	57
6	O=C1CN(C(=O)COC(=O)c2oc3ccccc3c2COc2ccccc2)c2ccccc2N1	-0.7	-4	22	94
7	N=C1/C(=C\c2coc3ccc(O)cc3c2=O)C(=O)N=C2SC=CN12	.	.	.	.
8	COc1ccc2c(c1)N(C)/C(=C1/SC(=NCc3ccccc3)N(c3ccccc3)C1=O)S2	-0.3	6	-34	116
9	C=CCNC(=O)c1c(Cl)cnn1-c1ccc(C)cc1	.	4	.	.
10	CC(C)(NC(=O)N1CCOCC1)c1cccc(C(C)(C)NC(=O)N2CCOCC2)c1	-4.5	6	62	130
11	COc1ccc(COC(=O)c2n[nH]c3ccccc23)cc1F	1.0	-2	-34	171
12	CCc1cccc(CC)c1NC(=S)Nc1ccc2cn[nH]c2c1	.	.	.	.

#	HSV augment	HSV augment primary fold	RGS16-Gao
1	i	0.96	72
2	i	1	99
3	i	0.88	100
4	.	.	.
5	i	0.82	109
6	i	0.81	125
7	?	.	102
8	i	1.2	101
9	i	0.94	100
10	i	1.1	.
11	i	0.84	105
12	i	0.82	104

More results
#	canonical_smiles	GALR2 ag	PKD1 kinase inh	INS promoter inh	INS promoter inh cell count
13	Cc1cc(C)c2nc(SC(C)C#N)cc(C)c2c1 (configuration not stated)	-1.1	1	-64	131
14	CS(=O)(=O)N(Cc1ccc(C(=O)N2CCc3ccccc3C2)cc1)c1ccccc1	.	-6	.	.
15	O=C(N/N=C/C(c1ccccc1)c1ccccc1)c1ccccc1F	.	-1	35	125
16	CCn1c(=O)cc(OCC(=O)N2CCCC2)c2ccccc21	-2.5	10	.	.
17	CCC1CCCCN1C(=O)CSc1nnc(CNC(=O)c2ccco2)o1 (configuration not stated)	0.3	2	-27	40
18	O=c1c2ccccc2nc(SCCN2CCCCC2)n1CCc1ccccc1	.	2	-48	69
19	CC1=NN(c2ccc(Cl)c(C(=O)O)c2)C(=O)/C1=C\c1ccc(-c2ccc(C(=O)O)cc2)o1	.	3	.	.
20	CCOc1cccc(/C(O)=C2/C(=O)C(=O)N(CCN3CCOCC3)C2c2ccncc2)c1 (configuration not stated)	.	6	-25	71
21	Cn1c(SCc2c(F)cccc2Cl)nc2c(c1=O)SCC2	.	-1	.	.
22	CC1(C)CC(=O)C2=C(C1)Nc1ccccc1NC2c1cccs1 (configuration not stated)	.	2	.	.
23	N#Cc1ccc(CSc2nnc(-c3ccccn3)n2-c2ccccc2)cc1	0.6	-7	-50	48
24	Clc1ccc(COn2nnc3ccccc32)c(Cl)c1	-0.8	-3	33	37

#	HSV augment	HSV augment primary fold	RGS16-Gao
13	i	0.96	98
14	i	0.95	99
15	i	1	92
16	i	0.79	125
17	i	1.1	157
18	i	0.9	99
19	i	0.98	99
20	i	1.1	99
21	i	1.1	101
22	i	0.99	100
23	i	0.95	96
24	i	0.76	103

The listing continues.
#	canonical_smiles	GALR2 ag	PKD1 kinase inh	INS promoter inh	INS promoter inh cell count
25	CCc1ccc(Nc2nnc(SCC(=O)Nc3ccc(C(=O)O)cc3)s2)cc1	.	.	.	.
26	O=c1c(Oc2ccccc2F)coc2cc(OCc3cnn(-c4ccccc4)c3)ccc12	-0.8	-6	13	80
27	CC1CC(C)(C)N2C(=O)C3(Nc4ccccc4S3)c3cccc1c32 (configuration not stated)	-2.2	-2	12	100
28	C/C(O)=C\c1nc(=O)c2c(C)cc(C)nc2n1-c1ccccc1	-2.8	-4	26	130
29	CC(C)(O)CNC(=O)Nc1ccc(Cl)c(Cl)c1	.	.	.	.
30	CCOC(=O)CSCC(NC(=O)OC(C)(C)C)C(=O)OCC (configuration not stated)	-0.6	-11	-3	142
31	Cc1ccc(C(=O)NCCN2C3=NC[C@@H](Cc4ccccc4)N3C[C@H]2Cc2ccc(O)cc2)cc1Br	.	-2	.	.
32	CCN(C(=O)Cc1c(C(=O)O)[nH]c2ccccc12)c1cc(OC)ccc1OC	-0.5	6	23	113
33	CN(CCO)CC(O)Cn1cnc2c1c(=O)n(C)c(=O)n2C (configuration not stated) (tested in a mixture with another compound)	-1.8	-8	-38	136
34	O=C(Nc1cccc(O)c1)c1cnn2cccnc12	-1.9	-4	.	.
35	O=C(CN1C(=O)CSC1=O)Nc1ccccc1F	-1.1	1	.	.
36	CCN(CC)c1ncnc2ccc(Br)cc12	-1.6	4	25	116

#	HSV augment	HSV augment primary fold	RGS16-Gao
25	i	1	105
26	i	1	111
27	i	1.1	99
28	i	0.81	100
29	i	0.94	96
30	i	0.83	93
31	i	0.69	101
32	i	0.93	106
33	i	0.86	90
34	i	0.68	99
35	i	1	97
36	i	0.88	99

Given as tab-separated lines: entries from further up
cpd	smiles	GALR2 ag	PKD1 kinase inh	INS promoter inh	INS promoter inh cell count	HSV augment	HSV augment primary fold	RGS16-Gao
27	CC1CC(C)(C)N2C(=O)C3(Nc4ccccc4S3)c3cccc1c32 (configuration not stated)	-2.2	-2	12	100	i	1.1	99
34	O=C(Nc1cccc(O)c1)c1cnn2cccnc12	-1.9	-4	.	.	i	0.68	99
29	CC(C)(O)CNC(=O)Nc1ccc(Cl)c(Cl)c1	.	.	.	.	i	0.94	96
33	CN(CCO)CC(O)Cn1cnc2c1c(=O)n(C)c(=O)n2C (configuration not stated) (tested in a mixture with another compound)	-1.8	-8	-38	136	i	0.86	90
32	CCN(C(=O)Cc1c(C(=O)O)[nH]c2ccccc12)c1cc(OC)ccc1OC	-0.5	6	23	113	i	0.93	106

Next records.
#	canonical_smiles	GALR2 ag	PKD1 kinase inh	INS promoter inh	INS promoter inh cell count
37	CC(C)(C)c1cc(CN2CCN(CCC#N)CC2)cc(C(C)(C)C)c1O	-1.5	5	.	.
38	Cc1ccccc1C(=O)Nc1ccc(C(=O)N/N=C/c2ccc(O)c(Br)c2)cc1	.	-1	.	.
39	COc1ccc(Cl)c(NC(=O)NCCN2CCN(c3ccccc3)CC2)c1	-1.5	5	57	121
40	O=C(Nc1cccnc1)c1ccc(Cl)c([N+](=O)[O-])c1	.	7	45	82
41	C=C(C)Cn1c(-c2cccc([N+](=O)[O-])c2)n[nH]c1=S	.	-5	-8	150
42	COc1ccc(C(=O)CN2C(=O)c3ccccc3C2=O)c(OC)c1C	0.7	3	-328	50
43	CCSC(=Nc1ccccc1)C1=C(O)COC1=O	-2.3	5	.	.
44	CCOC(=O)N1CCN(C(=O)CSCc2nc(-c3ccccc3C)oc2C)CC1	-2.5	-21	.	.
45	COc1ccc(/C(C)=N/NC(=O)c2sccc2-n2cccc2)cc1	.	-6	.	.
46	COc1ccc(C(C)(C)C)cc1NC(=O)c1ccc2c(c1)SC1=NS(=O)(=O)CCN12	.	2	.	.
47	COc1ccccc1N1CCN(C(=O)C(Sc2ccccc2)c2ccccc2)CC1 (configuration not stated)	-1.7	-3	4	126
48	O=C(COc1ccccc1-c1ccccc1)NNC(=O)NC1CCCCC1	.	-11	.	.

#	HSV augment	HSV augment primary fold	RGS16-Gao
37	i	0.96	104
38	i	0.92	40
39	i	1	92
40	i	1.1	91
41	i	0.81	97
42	i	0.97	103
43	i	1	104
44	i	0.95	90
45	i	1	99
46	i	0.84	100
47	i	0.81	102
48	i	0.97	98

(more compounds)
#	canonical_smiles	GALR2 ag	PKD1 kinase inh	INS promoter inh	INS promoter inh cell count
49	CC1CCCN(C(C(=O)Nc2ccc3c(c2)OCCO3)c2ccccc2)C1 (configuration not stated)	-2.0	-4	15	49
50	COc1ccc(-c2ccc(-c3nnn(CC(=O)N4CCOCC4)n3)cc2)cc1	-1.1	0	.	.
51	CNc1nc(N)c([N+](=O)[O-])c(NCCO)n1	-0.9	-4	52	104
52	CCOC(=O)c1ccc(NC(=O)COc2ccccc2CNCCc2ccccc2)cc1	.	-1	.	.
53	CNC(=O)c1ccc(Nc2nnc(C)c3ccccc23)cc1	-1.8	-1	55	134
54	Cc1ccccc1C(=O)Nc1ccccn1	0.3	-4	-29	121
55	Cc1nn(-c2ccccn2)c2nc(-c3cccs3)cc(C(=O)N3CCOCC3)c12	0.1	-6	15	108
56	O=C(Nc1ccccc1-c1ccccc1)c1cc(C(F)(F)F)cc(C(F)(F)F)c1	-0.4	-7	.	.
57	CCn1c(SCC(=O)N2CCOCC2)nc2sc3c(c2c1=O)CCCC3	1.0	-5	.	.
58	COc1ccc(OCCC(=O)c2ccc(OC)cc2)cc1	.	.	.	.
59	COc1ccc(NC(=S)NCc2ccc(S(N)(=O)=O)cc2)c(OC)c1	-1.5	-2	21	51
60	COc1ccc(CNc2cc(NCCCO)c([N+](=O)[O-])c3nonc23)cc1	.	-3	8	191

#	HSV augment	HSV augment primary fold	RGS16-Gao
49	i	0.98	105
50	i	0.94	100
51	i	1	98
52	i	0.66	105
53	i	1	112
54	i	0.88	99
55	i	0.75	86
56	i	0.92	106
57	i	0.88	102
58	i	0.98	103
59	i	0.95	116
60	i	0.89	104

(listing goes on)
#	canonical_smiles	GALR2 ag	PKD1 kinase inh	INS promoter inh	INS promoter inh cell count
61	Cc1ccc(N2CCN(CC3CC=CCC3)CC2)cc1 (configuration not stated)	-0.9	-2	.	.
62	CSc1cccc(NC(=O)Nc2nc3c(C)cccc3s2)c1	.	.	.	.
63	Cc1nc(-c2cc(C#N)c(=O)[nH]c2C)cs1	.	.	.	.
64	c1ccc(CCSc2nccn2-c2ccccc2)cc1	-1.4	6	60	90
65	S=C(Nc1ccccc1)Nc1nc2ccccc2n1CCOc1ccccc1	-1.9	12	8	149
66	O=C(CCCN1C(=O)c2ccccc2C1=O)Nc1ccc(S(=O)(=O)N2CCCCC2)cc1	-2.3	-6	7	102
67	COc1ccc(NS(=O)(=O)c2cc(NC(=O)c3cnccn3)ccc2N2CCCC2)cc1	-1.0	-10	25	106
68	CCOC(=O)N1CCN(S(=O)(=O)c2ccc(C(=O)NNc3nc4c(C)cc(C)cc4s3)cc2)CC1	-2.7	-11	17	82
69	CCn1cnc2cc(NCc3cccs3)ccc21	.	6	.	.
70	CCOC(=O)N1CCN(C(=O)CSCc2ccccc2Cl)CC1	-0.9	-6	.	.
71	CCn1c(-c2ccc(C)cc2)nn(CC(=O)NCCc2ccccc2)c1=S	-2.0	-8	-49	109
72	COc1ccccc1N1CCN(C(=O)c2cc(N3C(=O)C4C5CCC(C5)C4C3=O)ccc2Cl)CC1 (configuration not stated)	-1.3	-12	27	140

#	HSV augment	HSV augment primary fold	RGS16-Gao
61	i	0.93	102
62	i	0.81	107
63	i	1.1	100
64	i	0.95	98
65	i	0.51	99
66	i	0.94	103
67	i	0.68	79
68	i	0.77	113
69	i	0.82	102
70	i	1.1	107
71	i	0.79	91
72	i	0.9	98
